Screens deposited in PubChem BioAssay by Broad Institute.
AF4-AF9 inh: blocks AF4 peptide binding to human AF9. inhibition, % at 10 µM. 350,000 tested, 0.47% active. AID 651704. AlphaScreen, biotin-AF4 peptide binding to FLAG-AF9. P42568;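 active means every replicate reaching a set inhibition limit, whatever the replicate mean, cut at about 25% in these data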;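 further: 0% = plate neutral control median and 100% = total signal loss; the record names both 10 and 1 µM as test concentration; the first replicate is given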
Target sequence (P42568 whole entry, looked up): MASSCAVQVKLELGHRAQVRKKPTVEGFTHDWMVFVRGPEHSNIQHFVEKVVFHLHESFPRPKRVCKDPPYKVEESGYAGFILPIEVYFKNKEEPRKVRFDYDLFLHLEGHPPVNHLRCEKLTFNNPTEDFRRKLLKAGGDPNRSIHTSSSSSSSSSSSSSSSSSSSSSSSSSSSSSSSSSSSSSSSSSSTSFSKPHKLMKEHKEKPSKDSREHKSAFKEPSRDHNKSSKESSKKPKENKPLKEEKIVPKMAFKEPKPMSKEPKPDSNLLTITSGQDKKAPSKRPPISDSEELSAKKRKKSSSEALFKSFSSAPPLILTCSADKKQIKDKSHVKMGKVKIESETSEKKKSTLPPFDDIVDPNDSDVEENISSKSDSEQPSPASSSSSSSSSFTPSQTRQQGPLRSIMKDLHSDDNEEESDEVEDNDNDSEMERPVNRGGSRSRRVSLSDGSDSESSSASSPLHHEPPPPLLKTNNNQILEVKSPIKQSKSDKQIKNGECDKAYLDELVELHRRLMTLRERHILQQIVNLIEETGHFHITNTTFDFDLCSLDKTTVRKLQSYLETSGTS
* = called active by the depositor; & = joins results of further samples. A portion of the library; count on the stated rates, not on these rows.

SMILES	AF4-AF9 inh
COc1ccc2c3c(n(C)c2c1)[C@@H](CO)N(C(=O)c1cnccn1)CC31CN(C(C)=O)C1	-0.4
COc1ccc2c3c([nH]c2c1)[C@@H](CO)N(C(=O)c1ccncc1)CC31CCN(C(=O)CC2CC2)CC1	2.7
C[C@@H]1CN([C@@H](C)CO)C(=O)c2cc(-c3ccccc3)cnc2O[C@H]1CN(C)Cc1ccc(C(=O)O)cc1	-0.8
COc1ccc(CN2C[C@@H](O)COC[C@H]3O[C@H](CC(=O)NCCN4CCCC4)CC[C@@H]32)cc1	7.8
CN1[C@@H]2c3ccc(C4=CCCCC4)c(=O)n3C[C@H]1[C@H](CO)[C@H]2C(=O)NCc1cccc(F)c1	-0.9
CNC[C@@H]1Oc2cc(-c3ccc(C)cc3)ccc2S(=O)(=O)N([C@@H](C)CO)C[C@H]1C	1.9
CO[C@H]1CN(C)C(=O)c2cc(NC(=O)C3CCCC3)ccc2OC[C@@H](C)N(C)C[C@@H]1C	-1.0
C/C=C/c1ccc([C@@H]2[C@H](CO)N3C(=O)CN(C(=O)Nc4cccc(OC)c4)C[C@@H]23)cc1	-0.9
N#C/C(=C\c1cccn1S(=O)(=O)c1cccc([N+](=O)[O-])c1)S(=O)(=O)c1ccc(F)cc1	0.9
COC(=O)c1cc2c(c3c4cc(C)ccc4n(S(=O)(=O)c4cccc(C)c4)c13)C(=O)N(Cc1ccccc1OC)C2	-11
C[C@@H]1CN([C@H](C)CO)C(=O)c2cccc(N(C)C)c2O[C@@H]1CN(C)S(=O)(=O)c1ccccc1	-1.0
CCCC#Cc1cnc2c(c1)C(=O)N([C@@H](C)CO)C[C@@H](C)[C@@H](CN(C)S(=O)(=O)c1ccccc1)O2	-1.2
N[C@H]1CC[C@H](CCn2cc(C3CC3)nn2)O[C@@H]1CO	-9.0
COc1ccccc1NS(=O)(=O)c1cc(C(=O)Nc2ccc(S(=O)(=O)Nc3onc(C)c3C)cc2)ccc1C	-0.3
NCc1csc(Nc2nncc3ccccc23)n1	8.2
COc1ccc(S(=O)(=O)N(C)C[C@H]2Oc3ccc(NC(=O)CCN4CCOCC4)cc3CC(=O)N([C@H](C)CO)C[C@H]2C)cc1	-1.8
COc1ccc(C#Cc2ccc3c(c2)O[C@H](CN(C)C(=O)NC2CCCCC2)[C@H](C)CN([C@H](C)CO)S3(=O)=O)cc1	-14
COc1cccc(C(C)(O)c2nc(-c3cc(F)cc(F)c3)cs2)c1 (stereo not given)	-6.2
C[C@H]1CCCCO[C@H](CN(C)C)[C@@H](C)CN([C@@H](C)CO)C(=O)c2cc(NC(=O)Nc3ccc(F)cc3)ccc2O1	1.9
O=C(NCc1nnnn1-c1ccc(F)cc1)C(=O)c1c[nH]c2ccccc12	-0.8
Nc1ccn([C@@H]2O[C@H](C(=O)NCC(F)(F)F)[C@@H](O)[C@H]2O)c(=O)n1	0.5
CC(C)NC(=O)N1[C@H](CO)[C@H]2c3ccccc3N(C(=O)Nc3cccc(Cl)c3)C[C@H]21	0.6
CCCCCCCCN1C(=O)[C@@H](CC(=O)N2CCN(C(=O)c3ccco3)CC2)C[C@@]2(C(=O)OC)C1=C[C@H](C1CCCC1)O[C@@H]2C	-2.7
CC(C)NC(=O)Nc1ccc2c(c1)C(=O)N([C@@H](C)CO)C[C@@H](C)[C@@H](CN(C)C(=O)NC(C)C)O2	-2.7
CC(C)C#Cc1cnc2c(c1)C(=O)N([C@H](C)CO)C[C@H](C)[C@H](CN(C)S(=O)(=O)c1cn(C)cn1)O2	-3.7
C[C@H]1CN([C@@H](C)CO)C(=O)c2cc(NS(=O)(=O)c3ccc(F)cc3)ccc2O[C@@H]1CN(C)CC1CCCCC1	-3.5
O=C(Nc1ccc(F)cc1)N1C[C@@H]2[C@H](c3ccccc31)[C@H](CO)N2C(=O)Cc1ccncc1	-5.8
O=C(NC1CC1)c1ccc2nc([C@@H]3O[C@H](CO)[C@H](O)[C@H](O)[C@H]3O)[nH]c2c1	-1.8
COc1cccc(NC(=O)N(C)C[C@H]2Oc3cc(C#CC4(O)CCCC4)ccc3S(=O)(=O)N([C@H](C)CO)C[C@@H]2C)c1	0.7
CC(C)NC(=O)Nc1ccc2c(c1)C(=O)N([C@@H](C)CO)C[C@H](C)[C@H](CN(C)S(=O)(=O)c1cn(C)cn1)O2	-3.4
Cc1ccc(-c2ccc([C@@H]3[C@@H](CO)N4CCCCN(C(=O)c5ccncc5)C[C@@H]34)cc2)cc1	-3.2
COc1ccc(C2CC(=O)c3c(O)cc(O)cc3O2)cc1O (stereo not given)	1.0
C[C@H]1CCCCO[C@H](CN(C)C(=O)Nc2ccc(F)cc2)[C@@H](C)CN([C@@H](C)CO)C(=O)c2cc(NC(=O)Nc3cccc4ccccc34)ccc2O1	-0.5
C[C@H]1CN([C@@H](C)CO)C(=O)c2cc(C3=CCCC3)cnc2O[C@H]1CN(C)C(=O)c1cccnc1	-2.8
C[C@@H](c1ccccc1)N1C[C@H](COCc2ccccc2)Oc2cc(N3CCC[C@@H]3CO)ccc2S1(=O)=O	1.2
CCCNC(=O)N1C[C@H](C)[C@H](OC)CN(C)C(=O)c2cc(NC(=O)CCC)ccc2OC[C@H]1C	-2.9
CN(C[C@@H]1[C@@H](c2ccccc2)[C@H](CO)N1CC1CC1)C(=O)c1ccc(F)cc1	-3.5
COCC(=O)Nc1ccc2c(c1)C(=O)N(C)C[C@@H](OC)[C@H](C)CN(C(=O)C1CCCC1)[C@H](C)CO2	0.6
C[C@@H]1CN([C@@H](C)CO)C(=O)c2cc(NS(=O)(=O)c3ccc(Cl)cc3)ccc2O[C@@H](C)CCCCO[C@@H]1CN(C)C(=O)Cc1ccccc1	-0.3
CCOC(=O)C1=CC[C@@H](c2ccccc2)N(S(=O)(=O)c2ccc(C)cc2)[C@H]1C	-0.8
C[C@@H]1CN([C@H](C)CO)C(=O)c2cccc(NS(=O)(=O)c3ccc(F)cc3)c2O[C@@H]1CN(C)S(=O)(=O)c1ccc(Cl)cc1	0.9
COc1cccc(NC(=O)C2(C)CCN2C(=O)CC2CC2)c1 (stereo not given)	-1.8
C[C@H]1CN([C@@H](C)CO)C(=O)c2cc(-c3cccc(C#N)c3)cnc2O[C@H]1CN(C)Cc1ccc(F)cc1	1.2
CC(C)NC(=O)N1CCCCN2[C@H](CO)[C@H](c3ccc(C#Cc4ccccc4F)cc3)[C@H]2C1	-5.0
NC(=O)CC(NC(=O)Cc1cccc2ccccc12)c1ccc(NC2CCCC2)c([N+](=O)[O-])c1 (stereo not given)	-0.1
COc1ccc2c3c([nH]c2c1)[C@H](CO)N(Cc1nccs1)CC31CCN(C(=O)C2CC2)CC1	0.5
C/C=C/c1ccccc1[C@H]1[C@@H](CO)N(c2nc(CC)cs2)[C@H]1C#N	4.9
C[C@H](CO)N1C[C@H](C)[C@@H](CN(C)C(=O)Nc2cccc(F)c2)OCc2cn(nn2)CCCC1=O	0.8&-1.9
C[C@@H]1CN([C@H](C)CO)C(=O)c2cc(NC(=O)NC3CCCCC3)ccc2O[C@H]1CN(C)Cc1ccc(-c2ccccc2)cc1	1.9
CN(C)Cc1cn(CC[C@H]2CC[C@H](NC(=O)Nc3ccccc3F)[C@@H](CO)O2)nn1	-0.5

Other compounds:
SMILES	AF4-AF9 inh
CC(C)CC#Cc1cnc2c(c1)C(=O)N([C@H](C)CO)C[C@H](C)[C@H](CN(C)S(=O)(=O)c1cccs1)O2	2.0
CCC(=O)Nc1ccc2c(c1)C(=O)N(C)[C@H]1CC[C@H](CC(=O)O)O[C@H]1CO2	-0.5
CN(C)C(=O)C[C@H]1CC[C@H](NC(=O)NC2CCCC2)[C@H](CO)O1	0.5
CCCC#Cc1ccc([C@H]2[C@H](CO)N3C(=O)CN(C(=O)Cc4cccnc4)C[C@@H]23)cc1	-2.7
C[C@H]1CN([C@@H](C)CO)C(=O)c2cc(/C=C/c3ccccc3)cnc2O[C@H]1CN(C)S(=O)(=O)c1cccs1	3.6
CC(C)NC(=O)Nc1ccc2c(c1)C(=O)N([C@@H](C)CO)C[C@@H](C)[C@@H](CN(C)S(C)(=O)=O)OCCCC[C@@H](C)O2	-9.4
CNC(=O)C[C@@H]1CC[C@H]2[C@@H](COC[C@@H](O)CN2S(=O)(=O)c2ccc(Oc3ccccc3)cc2)O1	-1.0
COc1ccccc1-c1cnc2c(c1)C(=O)N([C@H](C)CO)C[C@H](C)[C@@H](CN(C)C(=O)c1ccncc1)O2	3.0
CN1[C@H](C(=O)NCC2CCCCC2)[C@@H](CO)[C@@H]2Cn3c(ccc(-c4cccnc4)c3=O)[C@@H]21	-0.2
O=C(NC1CCCC1)[C@@H]1[C@@H](CO)[C@@H]2Cn3c(ccc(-c4ccccc4)c3=O)[C@H]1N2CCc1ccccc1	0.4
COc1ccc(NC(=O)N(C)C[C@@H]2Oc3ccc(NS(=O)(=O)c4c(C)noc4C)cc3C(=O)N([C@@H](C)CO)C[C@@H]2C)cc1	-2.3
CC(C)C1C(=O)N(Cc2cn(CCC3OCCO3)nn2)CCS(=O)(=O)N1Cc1ccc(-c2ccc(Cl)c(Cl)c2)cc1 (stereo not given)	-2.9
C[C@@H]1CN([C@@H](C)CO)C(=O)c2cc(NC(=O)Cc3ccccc3)ccc2O[C@H]1CN(C)C(=O)Nc1ccc(C(F)(F)F)cc1	0.9
Nc1c(C(=O)NCC2CCCO2)c2nc3ccccc3nc2n1/N=C/c1ccncc1 (stereo not given)	-5.0
C[C@H](CO)N1C[C@H](C)[C@@H](CN(C)C(=O)c2ccncc2)OCCCC[C@H](C)Oc2ccc(NC(=O)c3ccncc3)cc2C1=O	-4.3
CCCN1[C@@H]2c3ccc(-c4ccccc4)c(=O)n3C[C@@H]2[C@@H](CO)[C@@H]1C(=O)NCCc1cn(C)cn1	3.8
C[C@@H]1CCCCO[C@H](CN(C)C(=O)Nc2ccccc2)[C@H](C)CN([C@@H](C)CO)C(=O)c2cc(NC(=O)Nc3ccc(F)cc3)ccc2O1	-2.0
CNC[C@@H]1Oc2cc(C#CC3CCCC3)ccc2S(=O)(=O)N([C@@H](C)CO)C[C@H]1C	-19
C[C@H]1CN([C@@H](C)CO)S(=O)(=O)c2ccc(-c3ccncc3)cc2O[C@@H]1CN(C)C	1.1
COc1ccccc1NC(=O)N(C)C[C@@H]1OCc2ccccc2-c2c(n(C)c3ccccc23)C(=O)N([C@@H](C)CO)C[C@H]1C	6.1
C/C=C/c1ccc2c(c1)O[C@@H](CN(C)C(=O)c1ccccn1)[C@H](C)CN([C@H](C)CO)S2(=O)=O	-0.7
COc1ccccc1-c1csc(C(NC(C)=O)c2ccccc2)n1 (stereo not given)	-1.3
COc1ccc(S(=O)(=O)Nc2ccc3c(c2)C(=O)N([C@@H](C)CO)C[C@@H](C)[C@@H](CN(C)Cc2ccc(C(=O)O)cc2)OCCCC[C@@H](C)O3)cc1	-9.6
CCCN(C)C[C@@H]1OCCCC[C@H](C)Oc2ccc(NS(C)(=O)=O)cc2C(=O)N([C@@H](C)CO)C[C@H]1C	0.3
C[C@H](CO)N1C[C@H](C)[C@H](CN(C)C(=O)C2CC2)Oc2cc(-c3cccc(C#N)c3)ccc2S1(=O)=O	1.0
C[C@@H]1CN([C@@H](C)CO)C(=O)c2cc(-c3cccc(F)c3)cnc2O[C@@H]1CN(C)C(=O)Nc1ccccc1F	-3.9
O=C(Cc1ccccn1)N[C@H]1CC[C@@H](CCNC(=O)c2cc(Cl)cc(Cl)c2)O[C@H]1CO	1.3
O=C(c1cc2c(c(-c3cccc(-c4ccc(F)cc4)c3)n1)[C@H](CCO)N(C(=O)c1ccc3c(c1)OCO3)C2)N1CCOCC1	3.1
Cc1ccc(S(=O)(=O)N(C)C[C@H]2Oc3ccc(NC(=O)CCCN(C)C)cc3C(=O)N([C@H](C)CO)C[C@@H]2C)cc1	-0.2
C[C@H](CO)N1C[C@H](C)[C@@H](CN(C)C(=O)Nc2ccc(F)cc2)Oc2ncc(C#Cc3ccc(F)cc3)cc2C1=O	0.0
COC(=O)C[C@@H]1CC[C@@H]2[C@@H](COc3ccc(NC(=O)C4CC4)cc3C(=O)N2C)O1	0.8
O=C(Cc1ccccn1)N1CC2(C1)[C@H](c1ccccc1)[C@H](CO)N2C(=O)c1cccnc1	-3.6
Cc1ccc(S(=O)(=O)N(C)c2ccc(OCC(=O)OCc3cccc(Br)c3)cc2)cc1	1.8
C[C@@H]1CN([C@H](C)CO)C(=O)Cc2cc(NC(=O)CCN3CCOCC3)ccc2O[C@H]1CN(C)Cc1ccc2c(c1)OCO2	-5.0

12 successive compounds already listed, for reference:
SMILES	AF4-AF9 inh
COc1ccc(S(=O)(=O)Nc2ccc3c(c2)C(=O)N([C@@H](C)CO)C[C@@H](C)[C@@H](CN(C)Cc2ccc(C(=O)O)cc2)OCCCC[C@@H](C)O3)cc1	-9.6
CCCN(C)C[C@@H]1OCCCC[C@H](C)Oc2ccc(NS(C)(=O)=O)cc2C(=O)N([C@@H](C)CO)C[C@H]1C	0.3
C[C@H](CO)N1C[C@H](C)[C@H](CN(C)C(=O)C2CC2)Oc2cc(-c3cccc(C#N)c3)ccc2S1(=O)=O	1.0
C[C@@H]1CN([C@@H](C)CO)C(=O)c2cc(-c3cccc(F)c3)cnc2O[C@@H]1CN(C)C(=O)Nc1ccccc1F	-3.9
O=C(Cc1ccccn1)N[C@H]1CC[C@@H](CCNC(=O)c2cc(Cl)cc(Cl)c2)O[C@H]1CO	1.3
O=C(c1cc2c(c(-c3cccc(-c4ccc(F)cc4)c3)n1)[C@H](CCO)N(C(=O)c1ccc3c(c1)OCO3)C2)N1CCOCC1	3.1
Cc1ccc(S(=O)(=O)N(C)C[C@H]2Oc3ccc(NC(=O)CCCN(C)C)cc3C(=O)N([C@H](C)CO)C[C@@H]2C)cc1	-0.2
C[C@H](CO)N1C[C@H](C)[C@@H](CN(C)C(=O)Nc2ccc(F)cc2)Oc2ncc(C#Cc3ccc(F)cc3)cc2C1=O	0.0
COC(=O)C[C@@H]1CC[C@@H]2[C@@H](COc3ccc(NC(=O)C4CC4)cc3C(=O)N2C)O1	0.8
O=C(Cc1ccccn1)N1CC2(C1)[C@H](c1ccccc1)[C@H](CO)N2C(=O)c1cccnc1	-3.6
Cc1ccc(S(=O)(=O)N(C)c2ccc(OCC(=O)OCc3cccc(Br)c3)cc2)cc1	1.8
C[C@@H]1CN([C@H](C)CO)C(=O)Cc2cc(NC(=O)CCN3CCOCC3)ccc2O[C@H]1CN(C)Cc1ccc2c(c1)OCO2	-5.0
